Compound activity: PubChem BioAssay, Broad Institute
A1 apoptosis 2 – A1 inhibitors via caspase activation, primary screen, cell-based, luminescence, HTS, two replicates | MEF A1-2A-BIM cells, caspase-Glo luminescence, 3 h; percent of clofoctol response, DMSO zero | caspase activation, % (concentration not given with the values) | 24,000 tested, under 10 active | AID 2465, 2010; in the data active means caspase activation above about 5.9%;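 further: wells of about 30 µL received 50 nL stock; the first replicate is given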
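Evaluation: Caspase-3/7 activity from luminescence increase | Assay system: A1-2A-BIM mouse embryonic fibroblasts | Quantity: 2500 MEF cells/well | Medium: RPMI-1640 plus 10% FBS | Detection: Caspase-Glo 3/7 luminescence, 1 h at room temperature | Dosing: 50 nL compound per well, pinned | Timing: Cells settled overnight, compound exposure 3 h at 37 °C, 5% CO2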
An asterisk follows results filed as active. A portion of the library. The share of hits here may be higher or lower than overall.

SMILES	A1 apoptosis 2
C[C@H]1CN([C@@H](C)CO)C(=O)c2cc(NC(=O)NC3CCCCC3)ccc2O[C@@H]1CN(C)Cc1ccc(C(=O)O)cc1	-0.2
COc1ccc(NC(=O)Nc2ccc3c(c2)C(=O)N([C@@H](C)CO)C[C@@H](C)[C@H](CN(C)C(=O)Nc2c(C)noc2C)OCCCC[C@H](C)O3)cc1	0.4
Cc1ccc(S(=O)(=O)Nc2cccc3c2O[C@H](CN(C)C(=O)Nc2ccc4c(c2)OCO4)[C@@H](C)CN([C@@H](C)CO)C3=O)cc1	1.0
C[C@H]1CN([C@@H](C)CO)C(=O)c2cc(NS(C)(=O)=O)ccc2O[C@@H]1CN(C)C(=O)NC1CCCCC1	1.1
Cc1noc(C)c1NC(=O)N(C)C[C@H]1OCCCC[C@@H](C)Oc2ccc(NS(=O)(=O)c3cccs3)cc2C(=O)N([C@H](C)CO)C[C@H]1C	0.9
C[C@@H]1CCCCO[C@@H](CN(C)C(=O)NC2CCCCC2)[C@@H](C)CN([C@H](C)CO)C(=O)c2cc(NC(=O)Cc3ccccc3)ccc2O1	0.4
Cc1noc(C)c1S(=O)(=O)N(C)C[C@@H]1OCCCC[C@@H](C)Oc2ccc(NC(=O)CCCCCC(=O)Nc3ccccc3N)cc2C(=O)N([C@H](C)CO)C[C@@H]1C	1.3
CC(C)NC(=O)N(C)C[C@H]1Oc2ccc(NS(=O)(=O)c3ccc(F)cc3)cc2C(=O)N([C@H](C)CO)C[C@H]1C	-0.5
Cc1noc(C)c1S(=O)(=O)Nc1ccc2c(c1)C(=O)N([C@@H](C)CO)C[C@@H](C)[C@@H](CN(C)Cc1ccncc1)OCCCC[C@H](C)O2	-0.1
Cc1ccc(S(=O)(=O)N(C)C[C@H]2Oc3ccc(NC(=O)CCCN(C)C)cc3C(=O)N([C@@H](C)CO)C[C@H]2C)cc1	-0.8
Cc1noc(C)c1S(=O)(=O)Nc1ccc2c(c1)C(=O)N([C@H](C)CO)C[C@H](C)[C@@H](CN(C)C(=O)Nc1ccc(C(F)(F)F)cc1)OCCCC[C@H](C)O2	0.7
COc1ccc(S(=O)(=O)Nc2cccc3c2O[C@H](CN(C)S(=O)(=O)c2cccs2)[C@H](C)CN([C@H](C)CO)C3=O)cc1	-0.3
C[C@@H]1CCCCO[C@H](CN(C)Cc2ccc(C(=O)O)cc2)[C@H](C)CN([C@H](C)CO)C(=O)c2cc(NS(=O)(=O)c3ccc(F)cc3)ccc2O1	-1.7
C[C@H](CO)N1C[C@H](C)[C@@H](CN(C)C(=O)NC2CCCCC2)OCCCC[C@H](C)Oc2ccc(NC(=O)Nc3ccc(F)cc3)cc2C1=O	-1.7
C[C@@H]1CN([C@H](C)CO)C(=O)Cc2cc(N(C)C)ccc2O[C@@H]1CN(C)Cc1ccc(C(=O)O)cc1	0.3
Cc1ccc(S(=O)(=O)Nc2ccc3c(c2)C(=O)N([C@H](C)CO)C[C@@H](C)[C@H](CN(C)Cc2ccc(Oc4ccccc4)cc2)O3)cc1	-0.8
C[C@@H]1CN([C@@H](C)CO)C(=O)c2cc(NC(=O)c3ccncc3)ccc2O[C@@H](C)CCCCO[C@@H]1CN(C)C(=O)Cc1ccccc1	0.3
C[C@@H]1CN([C@H](C)CO)C(=O)c2cccc(NC(=O)c3ccc(-c4nccs4)cc3)c2O[C@@H]1CN(C)S(=O)(=O)c1ccccc1	0.1
C[C@@H]1CN([C@H](C)CO)C(=O)c2cccc(NS(=O)(=O)c3cccs3)c2O[C@H]1CN(C)C	1.9
C[C@H](CO)N1C[C@H](C)[C@@H](CN(C)Cc2ccc(C(=O)O)cc2)Oc2c(NC(=O)Nc3ccc(C(F)(F)F)cc3)cccc2C1=O	1.5

4 entries from above, with each value named:
Cc1noc(C)c1S(=O)(=O)Nc1ccc2c(c1)C(=O)N([C@@H](C)CO)C[C@@H](C)[C@@H](CN(C)Cc1ccncc1)OCCCC[C@H](C)O2
  A1 apoptosis 2: -0.1
C[C@H](CO)N1C[C@H](C)[C@@H](CN(C)Cc2ccc(C(=O)O)cc2)Oc2c(NC(=O)Nc3ccc(C(F)(F)F)cc3)cccc2C1=O
  A1 apoptosis 2: 1.5
Cc1ccc(S(=O)(=O)Nc2cccc3c2O[C@H](CN(C)C(=O)Nc2ccc4c(c2)OCO4)[C@@H](C)CN([C@@H](C)CO)C3=O)cc1
  A1 apoptosis 2: 1.0
C[C@@H]1CCCCO[C@H](CN(C)Cc2ccc(C(=O)O)cc2)[C@H](C)CN([C@H](C)CO)C(=O)c2cc(NS(=O)(=O)c3ccc(F)cc3)ccc2O1
  A1 apoptosis 2: -1.7

(cont.)
SMILES	A1 apoptosis 2
CC(C)NC(=O)N(C)C[C@@H]1OCCCC[C@@H](C)Oc2ccc(NC(=O)Nc3cccc4ccccc34)cc2C(=O)N([C@@H](C)CO)C[C@H]1C	1.2
C[C@@H]1CN([C@H](C)CO)C(=O)c2cc(NC(=O)CCCCCC(=O)Nc3ccccc3N)ccc2O[C@H]1CN(C)C	0.4
Cc1noc(C)c1S(=O)(=O)Nc1ccc2c(c1)C(=O)N([C@H](C)CO)C[C@H](C)[C@@H](CN(C)S(=O)(=O)c1cccs1)OCCCC[C@H](C)O2	0.7
CC(C)NC(=O)Nc1ccc2c(c1)CC(=O)N([C@H](C)CO)C[C@H](C)[C@H](CN(C)S(=O)(=O)c1cn(C)cn1)O2	-0.4
COc1ccc(C#Cc2cnc3c(c2)C(=O)N([C@H](C)CO)C[C@H](C)[C@H](CN(C)S(=O)(=O)c2ccccc2)O3)cc1OC	-1.0
CC(C)NC(=O)Nc1ccc2c(c1)C(=O)N([C@@H](C)CO)C[C@H](C)[C@@H](CN(C)Cc1ccccc1)OCCCC[C@@H](C)O2	1.4
C[C@@H]1CN([C@@H](C)CO)C(=O)c2cc(NS(=O)(=O)c3cn(C)cn3)ccc2O[C@@H](C)CCCCO[C@@H]1CN(C)C(=O)CCCN(C)C	-1.5
Cc1ccc(S(=O)(=O)Nc2ccc3c(c2)C(=O)N([C@H](C)CO)C[C@@H](C)[C@H](CN(C)S(=O)(=O)c2ccc(F)cc2)OCCCC[C@@H](C)O3)cc1	-0.2
Cc1noc(C)c1S(=O)(=O)N(C)C[C@@H]1OCCCC[C@H](C)Oc2ccc(NC(=O)NC(C)C)cc2C(=O)N([C@H](C)CO)C[C@@H]1C	0.6
O=C(C1=C[C@H](c2coc3ccccc3c2=O)C[C@H](OCCCCO)O1)N1CCOCC1	-0.5
CC(C)NC(=O)Nc1ccc2c(c1)CC(=O)N([C@@H](C)CO)C[C@H](C)[C@@H](CN(C)C(=O)Nc1cccc3ccccc13)O2	0.9
C[C@@H]1CCCCO[C@@H](CN(C)C(=O)Nc2ccccc2)[C@@H](C)CN([C@@H](C)CO)C(=O)c2cc(NS(=O)(=O)c3ccc(F)cc3)ccc2O1	-0.8
C[C@@H]1CN([C@@H](C)CO)C(=O)c2cccc(NC(=O)Nc3ccc4c(c3)OCO4)c2O[C@@H]1CN(C)C(=O)Nc1ccccc1	-0.5
COc1ccc2nc(Cl)nc(NC3CCCCC3)c2c1	-0.4
COc1ccc(S(=O)(=O)Nc2ccc3c(c2)C(=O)N([C@H](C)CO)C[C@H](C)[C@@H](CN(C)S(=O)(=O)c2ccc(Cl)cc2)OCCCC[C@@H](C)O3)cc1	0.1
COc1ccc(S(=O)(=O)N(C)C[C@H]2Oc3ccc(NC(=O)Cc4ccccc4)cc3CC(=O)N([C@H](C)CO)C[C@H]2C)cc1	-0.1
C[C@H](CO)N1C[C@H](C)[C@@H](CN(C)C(=O)Cc2ccccc2)OCCCC[C@H](C)Oc2ccc(NC(=O)Nc3ccc4c(c3)OCO4)cc2C1=O	-1.5
COc1ccc(S(=O)(=O)Nc2ccc3c(c2)C(=O)N([C@@H](C)CO)C[C@@H](C)[C@@H](CN(C)Cc2ccc(Cl)c(Cl)c2)O3)cc1	1.1
C[C@@H]1CN([C@@H](C)CO)C(=O)CCCn2nncc2CO[C@H]1CN(C)C(=O)Nc1ccccc1C(F)(F)F	1.5
O=C(O)C1=C[C@@H](c2ccc(C(F)(F)F)cc2)C[C@@H](OCc2ccc(CO)cc2)O1	0.5
C[C@H](CO)N1C[C@H](C)[C@@H](CN(C)C(=O)Nc2ccc(F)cc2)Oc2ccc(NS(=O)(=O)c3ccc(Cl)cc3)cc2C1=O	1.9
C[C@H]1CN([C@@H](C)CO)C(=O)c2cc(NC(=O)Nc3ccccc3)ccc2O[C@@H]1CN(C)C(=O)Nc1ccccc1	0.2
Cc1ccc(S(=O)(=O)N[C@@H](Cc2ccccc2)C(=O)NCCn2cc(-c3ccccc3N)nn2)cc1	-0.2
COc1ccc(NC(=O)Nc2cccc3c2O[C@@H](CN(C)C)[C@H](C)CN([C@H](C)CO)C3=O)cc1	2.5
COc1cc(Cl)c(/C=N\NC(=O)CCCCC(=O)NO)c(Cl)c1OC	-1.0
C[C@H](CO)N1C[C@H](C)[C@@H](CN(C)C(=O)c2ccncc2)OCCCC[C@H](C)Oc2ccc(NC(=O)Cc3ccccc3)cc2C1=O	-0.1
Cc1ccc(S(=O)(=O)N(C)C[C@@H]2Oc3c(NC(=O)c4nc5ccccc5s4)cccc3C(=O)N([C@@H](C)CO)C[C@H]2C)cc1	0.8
C[C@@H]1CCCCO[C@@H](CN(C)Cc2ccncc2)[C@H](C)CN([C@H](C)CO)C(=O)c2cc(NS(=O)(=O)c3ccc(F)cc3)ccc2O1	-0.1
C[C@@H]1CN([C@@H](C)CO)C(=O)c2cccc(NC(=O)C3CC3)c2O[C@@H]1CN(C)Cc1ccncc1	-0.1
COc1ccc(S(=O)(=O)Nc2ccc3c(c2)CC(=O)N([C@H](C)CO)C[C@@H](C)[C@@H](CN(C)S(=O)(=O)c2ccc(C)cc2)O3)cc1	-1.1
C[C@H]1CN([C@@H](C)CO)C(=O)c2cccc(NC(=O)C3CCOCC3)c2O[C@@H]1CN(C)C(=O)Nc1ccc2c(c1)OCO2	-0.3
C[C@@H]1CCCCO[C@@H](CN(C)Cc2ccc(C(=O)O)cc2)[C@H](C)CN([C@@H](C)CO)C(=O)c2cc(NC(=O)CCCN(C)C)ccc2O1	1.0
C[C@@H]1CN([C@@H](C)CO)C(=O)c2cc(NS(=O)(=O)c3ccc(F)cc3)ccc2O[C@@H](C)CCCCO[C@H]1CN(C)S(=O)(=O)c1ccc(F)cc1	0.0
C[C@H](CO)N1C[C@H](C)[C@H](CN(C)C(=O)NC2CCCC2)Oc2ncc(/C=C/c3ccccc3)cc2C1=O	-0.5
NC(=O)[C@H]1[C@@H]2C(=O)O[C@@H](c3ccccc3)[C@@H](c3ccccc3)N2[C@@H](c2ccc(O)cc2)[C@]12C(=O)Nc1ccccc12	-0.3
C[C@@H]1CCCCO[C@@H](CN(C)Cc2ccc(Cl)c(Cl)c2)[C@@H](C)CN([C@H](C)CO)C(=O)c2cc(NC(=O)Nc3cccc4ccccc34)ccc2O1	1.5
OC(CSc1nc(-c2ccccc2)c(-c2ccccc2)o1)CC(O)c1ccccc1 (stereo not drawn)	-0.4
C[C@@H]1CN([C@@H](C)CO)C(=O)Cc2cc(N(C)C)ccc2O[C@@H]1CN(C)Cc1ccc(C(=O)Nc2ccccc2N)cc1	1.1
C[C@@H]1CCCCO[C@@H](CN(C)S(=O)(=O)c2cccs2)[C@@H](C)CN([C@@H](C)CO)C(=O)c2cc(NC(=O)c3ccncc3)ccc2O1	1.2
Cc1ccc(S(=O)(=O)N(C)C[C@H]2OCCCC[C@@H](C)Oc3ccc(NC(=O)Cc4ccccc4)cc3C(=O)N([C@@H](C)CO)C[C@@H]2C)cc1	0.7
Cc1noc(C)c1NC(=O)Nc1ccc2c(c1)C(=O)N([C@@H](C)CO)C[C@H](C)[C@H](CN(C)S(=O)(=O)c1ccccc1)OCCCC[C@@H](C)O2	-0.2
C[C@@H]1CN([C@@H](C)CO)C(=O)c2cc(NC(=O)Cn3cnnn3)ccc2O[C@H]1CN(C)Cc1ccc(C(=O)Nc2ccccc2N)cc1	0.2
C[C@@H]1CN([C@H](C)CO)C(=O)c2cccc(NC(=O)c3cnccn3)c2O[C@@H]1CN(C)S(=O)(=O)c1ccccc1	0.2
C[C@H]1CN([C@@H](C)CO)C(=O)c2cccc(NS(=O)(=O)c3ccc(Cl)cc3)c2O[C@H]1CN(C)CC1CC1	-1.3
CC(C)NC(=O)N(C)C[C@@H]1Oc2ccc(NC(=O)Cc3cn(C)c4ccccc34)cc2C(=O)N([C@@H](C)CO)C[C@@H]1C	1.1
C[C@H](CO)N1C[C@H](C)[C@@H](CN(C)Cc2ccccc2)Oc2ccc(NC(=O)CCCN(C)C)cc2CC1=O	0.2
C[C@H]1CN([C@@H](C)CO)C(=O)c2cc(NC(=O)Nc3ccc(F)cc3)ccc2O[C@H]1CN(C)C	1.3
C[C@H](CO)N1C[C@H](C)[C@@H](CN(C)CC2CC2)Oc2c(NC(=O)Nc3cccc4ccccc34)cccc2C1=O	1.1
C[C@@H]1CN([C@@H](C)CO)C(=O)Cc2cc(NC(=O)NC3CCCCC3)ccc2O[C@H]1CN(C)Cc1ccc(-c2ccccc2)cc1	-0.7
